Bioassay records as filed in PubChem.
D2 PAM – positive allosteric modulators of human D2 dopamine receptor; P14416; DiscoveRx D2 beta-arrestin cells, luminescence, 90 min; 100% = 57 uM dopamine signal; potentiation, % (concentration not given with the values); 360,000 compounds, 0.23% hits; active = potentiation of 50% or more; inconclusive = 30% to 50%; inactive = 30% or less;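 further: tested on top of an EC20 dose of dopamine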
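D2 cells co-treated with compound plus 50 nM dopamine (EC20) for 90 min at 37 deg C to detect potentiation. Beta-arrestin recruitment was read as enzyme-fragment luminescence after 1 h at ambient temperature. Full response was set by 57 uM dopamine.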
CtBP-E1A blk – blocks the CtBP interaction with E1A. AlphaScreen GST-E1A/His-CtBP binding, 1536-well; hits give low values; control for the full effect not named in the record. activity change, % (concentration not given with the values). 340,000 compounds, 0.49% hits; in the data active means activity change below about -65%; inconclusive means about -30% to -65%; inactive means above about -30%; further: on the % scale 0 is the no-effect control and ±100 the full control effect
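Steps: dispense buffer (Tris pH 8.0, NaCl 300 mM, TCEP 1 mM, BSA, Tween 20); add 5X protein mix (GST-E1A, His-CtBP, 125 nM each); pin 23 nL compound; 2 h at 37 °C, dark; add 5X beads (50 ug/mL); 1 h; read.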
TRPML1 ag – agonists of human TRPML1 channel | 410,000 compounds, 0.12% hits | activation, % (concentration not given with the values) | AID 624414 | TRPML1-expressing cells, Ca2+ dye fluorescence, FDSS; host cell line not named in the record; reference of the full effect not given here | Q9GZU1; in the data active = activation above about 50%; inconclusive = about 30% to 50%; inactive = below about 30%; further: 0% is about no effect; the text of the record puts the active cut at 80%
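Tetracycline-induced TRPML1-DL cells are seeded and incubated overnight before loading with a no-wash Ca2+ dye and quencher. Agonist activity is taken from the 110 s fluorescence read following compound pin-transfer on an FDSS, before EC80 54-4 challenge.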
TRPML1 blocker – human mucolipin-1 channel inhibition. activity change, negative = inhibition, % (concentration not given with the values). Q9GZU1. AID 624415. TRPML1-inducible cells, Ca2+ dye fluorescence, FDSS; hits give low values; inhibition of EC80 agonist-evoked calcium signal. 390,000 compounds, 0.02% hits; in the data active means activity change below about -50%; inconclusive means about -30% to -50%; inactive means above about -30%;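 further: stimulus is agonist 54-4 at its EC80 concentration; on the % scale 0 is the no-effect control and ±100 the full control effect; the text of the record puts the active cut at -80%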
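TRPML1-DL cells, Tet-induced overnight (~16 h, 37 °C) at 1,500 cells/well, were loaded with Ca8 no-wash dye plus quencher for 45-90 min at room temperature. Compounds were pinned during FDSS kinetic reading; agonist 54-4 at EC80 (4 uM final) then added.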
Six1-Eya2 blk – Six1/Eya2 interaction inhibition. Q15475+O00167. AlphaScreen GST-Six1/His-Eya2 binding, biochemical; hits give low values; control for the full effect not named in the record. activity change, % (no concentration beside the values). 360,000 compounds, 0.56% hits. AID 651725; in the data active = activity change below about -65%; inconclusive = about -30% to -65%; inactive = above about -30%; further: on the % scale 0 is the no-effect control and ±100 the full control effect
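AlphaScreen luminescence read after one hour at 37 °C in darkness. Pin-transferred compounds met GST-Six1 and His-Eya2 protein (5X stock 250 nM/500 nM) plus glutathione donor and Ni-chelate acceptor beads (5X, 50 ug/mL).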
TRPV1 potentiator – human TRPV1 potentiation. 320,000 compounds, 0.02% hits. AID 540277. TRPV1-expressing cells, Fluo-8 calcium influx, capsaicin EC20 potentiation; host cell line not named in the record; control for the full effect not named in the record. potentiation, % at 8.33 µM; active means potentiation above 80%; inconclusive means 30% to 80%; inactive means below 30%; further: 0% is about no effect
Target sequence (Q8NER1 whole entry, looked up): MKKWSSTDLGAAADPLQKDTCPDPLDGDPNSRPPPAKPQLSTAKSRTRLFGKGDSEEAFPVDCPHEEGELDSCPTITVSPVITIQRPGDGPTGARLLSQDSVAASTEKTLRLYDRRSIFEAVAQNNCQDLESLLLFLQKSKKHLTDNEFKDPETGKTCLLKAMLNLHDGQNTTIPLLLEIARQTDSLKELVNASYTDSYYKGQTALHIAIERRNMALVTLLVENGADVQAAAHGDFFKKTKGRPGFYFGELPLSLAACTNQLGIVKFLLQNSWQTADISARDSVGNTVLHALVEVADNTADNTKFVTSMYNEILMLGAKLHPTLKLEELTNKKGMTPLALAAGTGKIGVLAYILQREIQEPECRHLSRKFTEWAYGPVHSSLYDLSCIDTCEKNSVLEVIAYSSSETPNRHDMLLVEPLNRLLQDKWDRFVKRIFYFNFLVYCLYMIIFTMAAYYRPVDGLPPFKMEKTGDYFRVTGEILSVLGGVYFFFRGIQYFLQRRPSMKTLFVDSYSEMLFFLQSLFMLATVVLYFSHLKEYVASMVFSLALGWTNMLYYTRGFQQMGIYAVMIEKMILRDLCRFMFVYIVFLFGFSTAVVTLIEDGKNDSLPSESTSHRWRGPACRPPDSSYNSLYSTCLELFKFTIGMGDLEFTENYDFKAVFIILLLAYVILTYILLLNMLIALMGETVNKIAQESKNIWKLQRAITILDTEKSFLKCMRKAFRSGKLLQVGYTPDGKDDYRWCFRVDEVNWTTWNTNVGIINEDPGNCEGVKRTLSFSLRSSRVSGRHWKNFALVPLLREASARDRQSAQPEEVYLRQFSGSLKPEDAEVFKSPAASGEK
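Cells expressing TRPV1 were dye-loaded with Fluo-8 and read kinetically: 10 s baseline, 3 min after compound (agonist portion), then 2 min after EC20 capsaicin (allosteric enhancer portion). Calcium-bound dye fluorescence at 480/520 nm.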
Active calls of the source: *; ? = inconclusive; · = no result given.

The opening three compounds, ahead of the listing:
SMILES | D2 PAM | CtBP-E1A blk | TRPML1 ag | TRPML1 blocker | Six1-Eya2 blk | TRPV1 potentiator
COC(=O)c1ccc(C(=O)N2CCCC(Nc3ccc(C(C)C)cc3)C2)nc1 (configuration not stated) | -6 | -2 | 0.9 | 17 | -4 | 2
CC(C)CNC(=O)CN(C)S(=O)(=O)c1ccc(F)cc1 | -10 | -3 | -0.7 | 23 | -3 | 5
C=C(C)C(=O)OC1(C(F)(F)F)Oc2cc(C)ccc2NC1=O (configuration not stated) | -5 | 2 | 0.6 | -9 | -11 | -5

The whole of this part, from the first entry:
SMILES | D2 PAM | CtBP-E1A blk | TRPML1 ag | TRPML1 blocker | Six1-Eya2 blk | TRPV1 potentiator
COC(=O)c1ccc(C(=O)N2CCCC(Nc3ccc(C(C)C)cc3)C2)nc1 (configuration not stated) | -6 | -2 | 0.9 | 17 | -4 | 2
CC(C)CNC(=O)CN(C)S(=O)(=O)c1ccc(F)cc1 | -10 | -3 | -0.7 | 23 | -3 | 5
C=C(C)C(=O)OC1(C(F)(F)F)Oc2cc(C)ccc2NC1=O (configuration not stated) | -5 | 2 | 0.6 | -9 | -11 | -5
Cn1c(=O)c2c(nc(N3CCCCCC3)n2Cc2cccc3ccccc23)n(C)c1=O | 2 | -13 | 0.2 | 1 | -7 | 1
Cc1cc(NC(=S)N(CCN2CCCCC2)Cc2ccco2)ccc1Cl | -13 | 8 | 4.9 | 19 | -13 | -6
Oc1c(Cl)cc(Cl)cc1C1Nc2ccccc2-n2cccc21 (configuration not stated) | 3 | ? | -0.3 | 19 | ? | 8
Cc1nnc(N(C)C(=O)c2ccccn2)s1 | 2 | -10 | 0.7 | 8 | 8 | 10
O=C(c1ccc(S(=O)(=O)NCc2ccco2)cc1)N1CCCC(C(F)(F)F)C1 (configuration not stated) | -2 | 2 | 1.0 | -13 | 2 | -2
O=C(NCC1CCCN(C(=O)c2cccnc2)C1)c1ccc(-c2ccccc2)cc1 (configuration not stated) | -9 | 4 | -0.6 | -4 | -2 | 0
Cc1nccn1-c1ccc(NC(=O)[C@H]2O[C@@H](n3ccc(N)nc3=O)[C@H](O)[C@@H]2O)cc1 | · | 2 | -0.4 | · | 3 | ·
O=C(COC(=O)COc1ccccc1F)Nc1ccc(Cl)cn1 | -1 | 8 | -0.2 | 7 | 3 | -4
O=S(=O)(Cc1ccccc1Cl)c1ncn[nH]1 | -2 | -7 | -0.1 | 88 | -8 | ?
CC(SCc1ccccc1)C(=O)N/N=C/c1ccc(OCC(=O)NCc2ccco2)cc1 (configuration not stated) | -11 | 0 | 3.2 | 37 | 1 | ?
CCCS(=O)(=O)N1CCC(C(=O)NCC2CCCO2)CC1 (configuration not stated) | 0 | 9 | -0.7 | 13 | 0 | -4
Cc1nn(C)c(C)c1NC(=O)c1ccc(Br)o1 | -5 | 1 | -0.1 | -27 | -10 | 20
CC[C@]12c3[nH]c4cc(-c5ccco5)ccc4c3CCN1C(=O)[C@@H](CC(=O)NCCC1=CCCCC1)C[C@@H]2C(=O)N1CCN(C(=O)C2CC2)CC1 | -4 | -6 | -0.8 | 34 | -13 | ·
CCOc1ccc(-n2c(=O)c3c(C)c(C(=O)N(C)C)sc3n(CC(=O)Nc3ccccc3F)c2=O)cc1 | -4 | 2 | -0.5 | -11 | -1 | 0
O=C(NNC(=O)c1ccccc1Cl)c1ccco1 | -2 | 5 | -0.1 | -12 | 3 | 1
Cc1cccc(OCC(=O)NCCCNC(=O)c2cnccn2)c1 | 0 | 0 | -0.4 | -9 | -1 | 20
O=C(CSCc1ccccc1Br)N/N=C/c1ccc2c(c1)OCO2 | 6 | -11 | 1.7 | 1 | -25 | 3
COCCCNC(=O)CCCC(=O)NCCCOC | 2 | 4 | 0.3 | 13 | -3 | 2
CCc1ccc(CNC(=O)c2ccc(OC)c(OC3CCN(C(C)C)CC3)c2)nc1 | -23 | -2 | 0.6 | 0 | 4 | -12
CC(C)(C)NC(=O)C1(C)CCC(=O)N1CCCn1ccnc1 (configuration not stated) | -3 | 2 | -0.5 | · | 3 | ·
Cc1cc(C)n2c(Nc3ccc4c(c3)OCCO4)c(-c3ccc(F)cc3)nc2n1 | · | -30 | -0.4 | · | -11 | ·
COc1ccc(/C=C(/NC(=O)c2cccs2)C(=O)NCc2ccco2)cc1OC | 7 | 0 | 0.5 | -9 | 6 | 8
O=C(O)CN1C(=O)/C(=C\c2cccc(OC(=O)c3ccco3)c2)SC1=S | -13 | -5 | 0.2 | 12 | -11 | 11
COC(=O)c1cn(S(=O)(=O)c2ccccc2)c2ccccc12 | 0 | 7 | 1.7 | 26 | 4 | 16
Oc1c(C(c2ccccc2)N2CCCCC2)ccc2ccccc12 (configuration not stated) | 23 | 0 | -0.1 | -12 | 2 | ·
O=C(CCNC(=O)c1ccccc1)Nc1ccc(F)c(Cl)c1 | -8 | · | 0.2 | -4 | -2 | -12
CCCNCC1C(Oc2ccc(Cl)cc2)C(=O)N1c1ccccc1C (configuration not stated) | -22 | 6 | -0.6 | -8 | 7 | -1
CCN(C(=O)CSc1nncs1)c1c(N)n(Cc2ccccc2)c(=O)[nH]c1=O | -13 | 4 | 0.6 | -5 | 7 | 1
Fc1cccc(Cl)c1CNn1cn[nH]c1=S | -2 | 13 | -0.3 | 2 | 3 | -11
Cc1[nH]c2ccc(C(=O)N3CCN(c4cccc(Cl)c4)CC3)cc2c1C | 20 | 7 | 0.2 | 10 | 1 | -13
O=C(c1ccco1)N(Cc1cc2ccccc2[nH]c1=O)CC1CCCO1 (configuration not stated) | 3 | 1 | -0.2 | -3 | -1 | 19
O=C(Cc1ccc(Cl)cc1)Nc1ccc(NC(=O)c2cccs2)cc1 | -15 | 6 | 0.2 | -18 | 2 | -4
COc1ccc(S(=O)(=O)N2CCN(c3ncccn3)CC2)cc1OC | 0 | 1 | -0.2 | -5 | 0 | -1
COc1cc(C)nc(Nc2nc(C)c(C(C)=O)s2)n1 | -1 | -10 | -1.1 | 56 | -5 | -12
O=C(NNC1CC(=O)N(c2ccc(Br)cc2)C1=O)c1cccnc1 (configuration not stated) | -6 | 0 | 0.4 | 13 | 11 | -2
COc1ccc(/C=C2\Oc3cc(OCC(=O)N4CCC[C@H]4C(=O)O)ccc3C2=O)cc1OC | -1 | 6 | · | · | 3 | -17
O=[N+]([O-])c1ccc(NNC(=S)Nc2ccc(F)cc2)cc1 | 4 | 16 | 1.9 | -8 | -17 | 7
COc1ccccc1NCCC(=O)OCC(=O)Nc1ccc(Cl)cn1 | -5 | -5 | 4.4 | -4 | -15 | 5
Cc1ccc(Cl)c2c1=NC(=O)C=2c1[nH]c(=S)[nH]c1O | -14 | 0 | 1.4 | -15 | 0 | -1
O=C(NC(=S)NNC(=O)c1cc2ccccc2cc1O)c1ccco1 | -2 | -94* | 1.9 | 0 | -91* | 10
O=C1C=CC(=O)N1c1ccc(N2CCCCC2)cc1 | -58 | 2 | 0.6 | -2 | 5 | 3
COc1cccc(Nc2nc(N)c([N+](=O)[O-])c(NCc3ccccc3)n2)c1 | -10 | · | 0.3 | -17 | -3 | 7
O=C(NCC1CCCO1)c1cccc(C(=O)NCC2CCCO2)c1 (configuration not stated) | -6 | · | -0.5 | 26 | 5 | 5
O=C(O)c1ccc(NC(CSCc2ccc(F)cc2)C(=O)O)c([N+](=O)[O-])c1 (configuration not stated) | -23 | -2 | -0.4 | 3 | -2 | -3
C[C@]12c3[nH]c4cc(-c5ccco5)ccc4c3CCN1C(=O)[C@@H](CC(=O)NCc1ccco1)C[C@@H]2C(=O)N1CCOCC1 | 0 | -6 | 2.8 | -1 | -6 | ·
O=C(c1cccs1)N(CC1CCCO1)c1nc(-c2ccccc2)cs1 (configuration not stated) | -3 | 12 | 0.7 | -10 | 2 | 0
Cc1nc(SCC(=O)O)c(C#N)c2c1CCCC2 | 2 | · | 0.1 | -16 | -1 | -8
O=C1c2nccnc2C(=O)N1Cc1ccccc1 | -2 | -6 | 0.5 | 7 | 7 | ·
C[C@@H](NC(=O)c1nc[nH]c1C(=O)NCc1ccccc1)c1ccccc1 | -5 | 1 | 0.1 | -14 | -2 | -15
O=C(COC(=O)C1CC2C=CC1C2)Nc1ccccc1F (configuration not stated) | -3 | 0 | -0.2 | 2 | 3 | -27
S=C(NCc1cccnc1)Nc1cccc2ccccc12 | 0 | 1 | 0.1 | -12 | -7 | -13
Cc1cc(NC(=O)COC(=O)c2cccc(S(=O)(=O)N3CCOCC3)c2)no1 | 6 | 6 | -0.6 | 5 | 1 | 5
COC(=O)c1ccc(C2C(C(=O)c3cc4ccccc4o3)=C(O)C(=O)N2CCCN(C)C)cc1 (configuration not stated) | -22 | 6 | 0.4 | -18 | -2 | 8
O=C(O)/C=C/C(=O)Nc1ccc(-n2ccc(C(F)(F)F)n2)cc1 | -19 | · | -0.2 | 3 | 1 | -5
Cc1ccccc1NC(=O)OCCN1CCN(Cc2ccccc2)CCC1=O | -6 | 8 | -0.5 | -19 | 3 | 14
CCC(CC)COC(=O)C(C#N)c1nc2ccccc2nc1N1CCN(CC)CC1 (configuration not stated) | -11 | -5 | 0.7 | 43 | -18 | -17
CCCCOC(=O)Cc1c(O)c2ccccc2[nH]c1=O | -16 | 2 | -0.3 | 1 | -3 | 17
CC1Cc2nc(SCC(=O)Nc3ccc(F)cc3)n(C)c(=O)c2S1 (configuration not stated) | 12 | 0 | -2.1 | 7 | -2 | 5

Another view of 4 compounds above:
Molecule: Cc1nc(SCC(=O)O)c(C#N)c2c1CCCC2
  D2 PAM = 2
  CtBP-E1A blk = ·
  TRPML1 ag = 0.1
  TRPML1 blocker = -16
  Six1-Eya2 blk = -1
  TRPV1 potentiator = -8

Molecule: O=C1c2nccnc2C(=O)N1Cc1ccccc1
  D2 PAM = -2
  CtBP-E1A blk = -6
  TRPML1 ag = 0.5
  TRPML1 blocker = 7
  Six1-Eya2 blk = 7
  TRPV1 potentiator = ·

Molecule: C[C@@H](NC(=O)c1nc[nH]c1C(=O)NCc1ccccc1)c1ccccc1
  D2 PAM = -5
  CtBP-E1A blk = 1
  TRPML1 ag = 0.1
  TRPML1 blocker = -14
  Six1-Eya2 blk = -2
  TRPV1 potentiator = -15

Molecule: O=C(COC(=O)C1CC2C=CC1C2)Nc1ccccc1F (configuration not stated)
  D2 PAM = -3
  CtBP-E1A blk = 0
  TRPML1 ag = -0.2
  TRPML1 blocker = 2
  Six1-Eya2 blk = 3
  TRPV1 potentiator = -27
